D2 ag = Beta-Arrestin HTS for Positive Allosteric Modulators of the Human D2 Dopamine Receptor: Agonists | D(2) dopamine receptor (Homo sapiens), P14416 | DiscoveRx PathHunter D2 beta-arrestin, luminescence, 90 min; 100% = 57 uM dopamine signal | activation, % (concentration not given with the values) | 360,000 tested, 0.084% active; in the data active = activation above about 40%; inconclusive = about 15% to 40%; inactive = below about 15%; further: compound concentration not given in the record; the text of the record calls up to 30% inactive
Target sequence (P14416 whole entry, looked up): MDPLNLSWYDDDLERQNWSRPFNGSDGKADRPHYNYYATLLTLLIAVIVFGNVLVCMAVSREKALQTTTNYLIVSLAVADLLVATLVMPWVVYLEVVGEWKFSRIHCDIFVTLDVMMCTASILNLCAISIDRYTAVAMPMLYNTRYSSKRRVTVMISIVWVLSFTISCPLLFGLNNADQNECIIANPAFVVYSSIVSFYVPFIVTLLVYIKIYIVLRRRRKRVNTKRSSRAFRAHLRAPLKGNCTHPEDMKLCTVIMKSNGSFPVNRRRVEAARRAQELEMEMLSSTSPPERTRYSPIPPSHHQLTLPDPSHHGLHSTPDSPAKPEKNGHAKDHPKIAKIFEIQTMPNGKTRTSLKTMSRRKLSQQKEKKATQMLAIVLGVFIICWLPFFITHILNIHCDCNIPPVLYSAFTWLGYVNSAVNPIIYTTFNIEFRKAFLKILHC
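Agonist mode: compounds alone added to overnight-plated D2 PathHunter cells for 90 min at 37 C, with 57 uM final dopamine (EC100) defining full response. Beta-arrestin recruitment detected by chemiluminescent reagent, read after 1 h at ambient temperature.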
PINK1 expr mod = A Quantitative High throughput Screen to Identify Chemical Modulators of PINK1 Expression; 410,000 tested, 0.2% active; PINK1 immunofluorescence, high-content cytometry, 24 h; Potency, µM (series often up to 76.6 µM), without a hit: at the highest dose activation (PINK1 increase), hits mostly activators; active = well fitted activation curve with a large enough effect; inconclusive = small, poorly fitted or top-dose-only effect; inactive = flat fitted curve, though single readings scatter; cell line not stated here;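 further: potency means the concentration at half of the fitted maximal effect; % of control where 0% means no effect; nearly all actives have a fitted effect of over 65% in size; a mitochondrial uncoupler was the plate control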
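A stable cell line was treated with compounds at 5 concentrations for 24 hours, with CCCP as control. PINK1 levels and mitochondrial localization were measured by immunofluorescence with mitochondrial, cell and nuclear markers after fixation, read by laser-scanning cytometry.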
gsp antagonist = qHTS for Antagonists of gsp, the Etiologic Mutation Responsible for Fibrous Dysplasia/McCune-Albright Syndrome: qHTS; 340,000 tested, 0.4% active; gsp-mutant cells, cAMP HTRF, 30 min; control for the full effect not named in the record; Potency, µM (doses to about 76.9 µM), for the others: top-dose activity change, negative = inhibition, most hits filed as inhibitors; AID 624288, 2012; active = falling curve of any shape with a large fitted effect; inconclusive = falling curve, mostly with a smaller effect; inactive = flat or rising curve; cell line not stated here;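 further: intracellular cAMP measured with PDE inhibitor Ro 20-1724 present during compound exposure; potency means the concentration at half of the fitted maximal effect; on the % scale 0 is the no-effect control and ±100 the full control effect; nearly all actives have a fitted effect of over 65% in size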
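Cells in G418 medium, seeded 16-24 h, 37C; buffer exchange to DPBS + 1 mM CaCl2, 0.5 mM MgCl2, 0.05% BSA; cpds in DMSO + […] (300 uM stock), 30 min 37C; HTRF cAMP detection.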
ClpP mod = qHTS Assay for Activators of ClpP | ATP-dependent Clp protease proteolytic subunit (Bacillus subtilis (strain 168)), P80244 | purified B. subtilis ClpP, FRET peptide cleavage, 20 min | Potency, µM (series often up to 57.5 µM), inactives show top-dose activity change, negative = active | 340,000 tested, 1.9% active; active = well fitted falling curve with a large enough effect; inconclusive = small, poorly fitted or top-dose-only effect; inactive = no such curve, though single readings can be large or run the other way; further: potency means the concentration at half of the fitted maximal effect; the source files actives as falling curves though it sought activators and does not explain the sign; nearly all actives have a fitted effect of over 65% in size; many hits overshoot -100%
Target sequence (P80244 whole entry, looked up): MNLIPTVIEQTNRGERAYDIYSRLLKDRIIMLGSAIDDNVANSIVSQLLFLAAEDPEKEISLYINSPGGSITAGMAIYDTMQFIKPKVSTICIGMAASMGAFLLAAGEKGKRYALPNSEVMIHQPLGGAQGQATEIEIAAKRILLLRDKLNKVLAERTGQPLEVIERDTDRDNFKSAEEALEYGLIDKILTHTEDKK
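Purified B. subtilis ClpP, 10 microg/mL final in Tris/HCl pH8 with KCl, BSA, glycerol and Tween-20, cleaved an Abz/nitrotyrosine-quenched decapeptide. Fluorescence (ex 320, em 430) was read at 0 and 20 min at room temperature. Delta was normalized to 5.8 microM ADEP and DMSO/no-enzyme controls.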
Menin MLL FP FL = qHTS Assay for Inhibitors Targeting the Menin-MLL Interaction in MLL Related Leukemias: Competition With Fluorescein Labeled MLL-derived Peptide; 290,000 tested, under 10 active; FP activity change, % at 61.4 µM; Fluorescence polarization, fluorescein-MLL peptide displacement from menin; inconclusive = falling polarisation curve, or a change in total fluorescence; inactive = total fluorescence flat and polarisation flat or rising; no compound was filed as active; the % refers to the polarisation; negative = inhibition;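 further: % of control where 0% means no effect; inhibitors lower the polarisation; unlabelled MLL peptide was the positive control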
Sfp inh = qHTS Assay for Inhibitors of Bacillus subtilis Sfp phosphopantetheinyl transferase (PPTase); 4'-phosphopantetheinyl transferase ffp (Bacillus subtilis), Q9F4F7; Biochemical Sfp PPTase activity, qHTS; Potency, µM, inactives show max response, negative = inhibition, usual class: inhibitors; 310,000 tested, 3.5% active; AID 1490, 2009; active means well fitted inhibition curve with a large enough effect; inconclusive means small, poorly fitted or top-dose-only effect, or another doubt; inactive means no such curve, though single readings can be large or run the other way;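 further: the enzyme is Sfp with the accession as filed and its product quenches rhodamine fluorescence; potency means the concentration at half of the fitted maximal effect; 0% = enzyme reaction without inhibitor and -100% = no enzyme wells; top concentration of the series not given in the record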
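Buffer: 50 mM Hepes-Na pH 7.6, 10 mM MgCl2, 0.01% Nonidet P-40, 0.01% BSA. Enzyme 15 nM, pre-exposed to compound 15 min; substrates then added and fluorescence change tracked over 30 min.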
gsp agonist = qHTS for Agonist of gsp, the Etiologic Mutation Responsible for Fibrous Dysplasia/McCune-Albright Syndrome: qHTS | gsp mutant cells, cAMP HTRF, 30 min; control for the full effect not named in the record | Potency, µM (series often up to 76.9 µM), for the others: at the top dose activation (cAMP increase), hits mostly activators | 340,000 tested, 0.13% active | AID 624287, 2012; active = well fitted activation curve with a large enough effect; inconclusive = small, poorly fitted or top-dose-only effect, or another doubt; inactive = no such curve, though single readings can be large or run the other way; cell line not stated here;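 further: phosphodiesterase inhibitor Ro 20-1724 added with compounds to block cAMP breakdown; potency means the concentration at half of the fitted maximal effect; nearly all actives have a fitted effect of over 60% in size; about a fifth of the inactives were tested at one dose only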
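Cells stably selected in G418 were plated at 2000/well, grown 16-24 hr, then given compounds in DMSO with the PDE inhibitor […] (300 uM solution added) for 30 min at 37C; cAMP was read by HTRF.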
Numbers without * were called inactive; ? = inconclusive; · = not tested or not shown; & = joins results of further samples; [ ] = remark or other dose. Outcome played no part in choosing rows, and some 5.1% of all compounds hit somewhere here.

SMILES	D2 ag	PINK1 expr mod	gsp antagonist	ClpP mod	Menin MLL FP FL	Sfp inh	gsp agonist
O=C(CN1C(=O)C2C3C=CC(C3)C2C1=O)OCC(=O)c1ccc(Br)cc1 (configuration not stated)	-8.4	-1.2%	-9%	-1.8%	-3.8	-7%	5%
CN(CC(=O)Nc1ccc(Cl)c(C(F)(F)F)c1)C(=O)c1cccc2cccnc12	-1.8	0.6%	-7%	-0.3%	·	·	-3%
Cc1cc(C)n(-c2ccc(NC(=O)C3CCCCN3C(=O)c3ccoc3)cc2)n1 (configuration not stated)	-2.3	-0.1%	2%	-0.5%	·	5%	13%[15.4 µM]
O=C(c1cnn2c(C(F)(F)F)cc(-c3cccs3)nc12)N1CCOCC1	-4.8	3.2%	17%	·	-0.3	18%	-5%[15.4 µM]
CCOC(=O)c1c(C)[nH]c(C)c1S(=O)(=O)NCc1cc(C)ccc1C	-4.1	-1.0%	-18%	-0.9%	-0.7	3%	-8%
C[n+]1cccc(O)c1SCc1ccccc1	-2.7	-0.6%	4%	-2.6%	·	·	8%
C=CCn1c(SCc2c(C)noc2C)nc2cc(C(=O)O)ccc2c1=O	-1.3	20%[38.3 µM]	4%	-16%	-1.1	0%	?
COc1ccc(NC(=S)NN2CCN(C)CC2)cc1	-2.8	-1.7%	-1%	?	1.5	-1%	-7%
COc1ccc(N(Cc2cc3cccc(C)c3[nH]c2=O)S(=O)(=O)c2ccc(Cl)cc2)cc1	-6.4	-0.2%	2%	-7.1%	0.2	26%	0%
O=C(Cc1cccs1)Nc1ccccc1C(=O)O	0.3	-2.6%	-7%	-20%	0.2	27%	1%
O=S1(=O)CCOC[C@H](Cc2ccccc2)N1Cc1ccc(Cl)cc1	0.8	-0.7%	-10%	-0.8%	·	·	·
Cc1ccc(NC(=O)c2cccc(Oc3ccc([N+](=O)[O-])cc3)c2)c(C(=O)O)c1	-2.5	-0.5%	-13%	0.7%	3.6	-11%	-22%
O=C(c1ccc(Br)s1)N1CCN(C/C=C/c2ccccc2)CC1	-0.7	-6.7%[38.3 µM]	1%	-3.0%	5.9	?	11%
O=[N+]([O-])c1ccc(Oc2cc(NC3CCCCCCC3)c([N+](=O)[O-])cc2[N+](=O)[O-])cc1	0.7	0.8%	-16%	0.8%	-0.2	11%	?
N#Cc1cccc(-c2nc3cnc(N4CCOCC4)nc3n(Cc3ccc(F)cc3)c2=O)c1	·	0.4%	·	·	-0.6	20%	·
O=C(c1ccccc1)c1cnc[nH]1	1.1	0.4%	3%	·	-1.1	12%	-6%[15.4 µM]
CCc1cccc2sc(NC(=O)C3CC3)nc12	-3.2	6.0%	-4%	1.2%	1.1	13%	1%
Cc1cc(-c2ccc(C)c(S(=O)(=O)Nc3cc(C)on3)c2)on1	-0.7	1.0%	-18%	1.4%	·	9%	-50%[inhibitor]
O=C(c1ccc(Cn2cc([N+](=O)[O-])cn2)o1)N1N=C(C(F)F)CC1(O)C(F)F (configuration not stated)	-1.2	4.3%[38.3 µM]	-2%	0.9%	-0.6	6%	4%
CCNc1nc(NCC)n2c(SCC(=O)Nc3ccc(C(F)(F)F)cc3[N+](=O)[O-])nnc2n1	0.3	2.1%	1%	-10%	4.9	6%	?
N#Cc1c(-c2ccco2)ccn(Cc2ccc(F)cc2)c1=O	-2.6	-0.9%	-8%	4.2%	7.1	13%	-8%
CN(C)C(=O)c1ccc(N/C=C(\C=O)c2nc3ccccc3o2)cc1	-1.1	-0.6%	-1%	·	2.0	1%	18%
COc1ccc(/C=C2\SC(=S)N(N3CCOCC3)C2=O)c(OC)c1	-2.6	4.1%	6%	·	0.1	-13%	-17%
Cc1nc2cc(N3CCCCC3)c(NC(=O)c3ccncc3)cc2c(=O)n1Cc1ccccc1	-3.0	3.5%	-10%	-2.3%	-3.8	13%	1%
Cn1c(N2CCN(C(=O)Nc3ccc(F)cc3)CC2)nc2ccccc21	0.5	-1.5%	-3%	-1.9%	0.9	-9%	-18%

(more compounds)
SMILES	D2 ag	PINK1 expr mod	gsp antagonist	ClpP mod	Menin MLL FP FL	Sfp inh	gsp agonist
CCOC(=O)COc1cc(-n2c(=S)[nH]c3ccccc3c2=O)c(Cl)cc1Cl	1.7	5.9%	-13%	·	-4.5	8%	-4%[15.4 µM]
O=C(NN(C(=O)C1CC1)c1nc2ccccc2s1)C1CC1	-0.8	-2.1%	11%	0.4%	1.4	-10%	-51%[inhibitor]
CCCc1nc2ccccc2c(=O)n1NC(=O)c1c(O)c2cccc3c2n(c1=O)CCC3	-1.6	-1.9%	-1%	-1.3%	-0.6	-10%	24%
CCc1nnc(N2C(=N)SCC2=O)s1	-1.7	1.8%	-13%	·	2.0	50µM*	-2%
O=C(CN1C(=O)S/C(=C/c2cccnc2)C1=O)N1CCOCC1	-0.2	0.1%	2%	-1.7%	7.2	-2%	-2%[15.4 µM]
COc1ccc(N2CCN(C(=O)C(=O)c3c(C)n(C)c4ccccc34)CC2)cc1	-2.9	-2.7%	-32%	-2.9%	1.8	4%	10%[15.4 µM]
COc1ncccc1-c1nnn(-c2ccc(F)cc2)n1	-1.7	-1.9%	-2%	-8.5%	-0.3	10%	·
C=CCn1c(C)cc(C)c(C#N)c1=O	1.5	-1.6%[38.3 µM]	10%	?	-1.2	16%	-12%
CCOc1cc(C(C(=O)NCC2CCCO2)N(C(=O)Cn2nnc3ccccc32)c2ccccc2C)ccc1O (configuration not stated)	-0.9	2.3%	-8%	·	-0.4	10%	16%[15.4 µM]
CC1(C(=O)Nc2ccccc2)Cc2c(-c3cccc(C(F)(F)F)c3)ccnc2O1 (configuration not stated)	1.7	5.3%	·	-2.3%	·	·	·
O=C(CCn1nnc(-c2cccs2)n1)N1CCc2ccccc2C1	-4.0	-1.9%	-1%	-3.0%	0.9	-3%	-35%[inhibitor]
CCOC(=O)N1CCN(C(=O)COC(=O)C2CCN(S(=O)(=O)c3c(Cl)cccc3Cl)CC2)CC1	-3.3	-0.7%	-9%	-1.3%	·	·	-47%[inhibitor]
Cc1ccc(N(C)C(=O)c2cc(S(=O)(=O)N3CCCCC3)c[nH]2)cc1	3.0	2.9%	6%	1.8%	2.3	17%	26%
CC(=O)Nc1ccc(S(=O)(=O)N2CCN(S(=O)(=O)c3ccc(F)c(F)c3F)CC2)cc1	-3.2	29%	11%	0.4%	1.7	4%	-30%
O=S(=O)(Cc1ccccc1Cl)NCCc1ccc(F)cc1	-5.7	2.0%	3%	0.9%	5.9	-7%	-23%
Cc1ccc(S(=O)(=O)N2CCN(C(=O)Cc3ccc(S(=O)(=O)N4CCOCC4)s3)CC2)cc1	-3.2	-0.6%	-16%	0.0%	·	11%	?
O=C(c1ccccc1)N1CCN(S(=O)(=O)c2ccc(Cl)c(C(F)(F)F)c2)CC1	-0.9	6.7%	5%	0.3%	·	·	-3%
CC(C)(C)NC(=O)c1ccc2c(c1)C1C3CCC(C3)C1C(c1ccccc1)N2 (configuration not stated)	-1.7	3.0%	-14%	-10%	·	3%	-4%
O=C(Cn1nnnc1CN1CCOCC1)N1CCC(c2cccc(Cl)c2)C1 (configuration not stated)	-1.0	0.9%	9%	-1.8%	-4.3	4%	-26%
C[C@@H]1CN([C@H](C)CO)C(=O)CCCn2nncc2CO[C@@H]1CN(C)C(=O)Nc1ccc(N2CCN(C)CC2)cc1	-1.9	1.2%	·	-2.5%	·	·	9%
O=C(NNc1ccccc1C(F)(F)F)c1sccc1Br	-5.1	5.6%	5%	-0.8%	0.3	-5%	24%
Cc1cccc(C)c1NC(=O)CN(C)C(=O)c1ccccc1Sc1ccccc1C#N	-0.7	0.8%	-9%	-2.0%	·	·	-19%
CCN(Cc1ccccc1)C(=O)CCNS(=O)(=O)c1ccc2c(c1)CC(C)N2C(C)=O (configuration not stated)	5.2	0.7%&0.3%	3%	0.2%&1.1%	-7.5	13%	-22%
CCCOC1CCCN(C(=O)c2ccc3oc(C(C)C)nc3c2)C1 (configuration not stated)	1.1	2.9%	5%	5.2%	·	11%	-2%[15.4 µM]
CCOc1ccc(-c2nnn(CC(=O)NCc3ccco3)n2)cc1	0.1	8.0%	0%	-0.6%	4.8	-5%	-8%

The listing continues.
SMILES	D2 ag	PINK1 expr mod	gsp antagonist	ClpP mod	Menin MLL FP FL	Sfp inh	gsp agonist
CCc1nnc(NC(=O)CSc2nnc(COc3cccc(C)c3)o2)s1	0.5	-1.4%	-15%	0.8%	6.4	?	23%
Cc1ccc(NC(=O)Cn2nnc(C(=O)NCc3ccc(Cl)cc3)c2N)cc1F	0.6	1.4%	8%	0.6%	1.3	-9%	-4%
O=S(=O)(c1ccc(Cl)cc1)c1nc(-c2ccccc2F)oc1NCCCN1CCOCC1	-5.7	-2.2%	-12%	0.4%	·	-14%	?
O=C(O)Cn1nc(-c2ccc(Cl)cc2)ccc1=O	-2.5	0.9%	2%	·	-0.2	9%	1%
FC(F)(F)c1ccc(C2[C@H]3CN(Cc4cccnc4)[C@H](c4ccccc4)C34CC2(c2cccnc2)C4)cc1 (some centres not stated)	-0.9	1.3%	-17%	-0.4%	2.1&7.2	35µM*	·
O=[N+]([O-])c1ncc(Br)cc1Nc1ccccc1	-0.2	-0.3%	9%	0.7%	·	·	1%
O=C(COc1ccccc1)Nc1ccc(N2CCN(C(=O)c3ccco3)CC2)cc1	12	-0.3%	-1%	·	-0.2	20%	11%[15.4 µM]
